LANA-H2B inh: blocks KSHV LANA binding to histone H2A/H2B; inhibition, % (test concentration not listed); cell-free LANA-H2A/H2B peptide, fluorescence polarization; 320,000 tested, 0.6% active; AID 2629; in the data active = inhibition mostly above about 10%, no sharp cut-off; inactive = mostly below about 6.7%;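 note: stock transfer was 7.5 nL into about 10 µL; 0% = median of vehicle wells and 100% = median of positive control wells; one replicate is shown; the record names a cut of 25% in any replicate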
E coli growth: E. coli growth inhibition; Escherichia coli growth, OD600, 23 h; hits give low values; OD600 absorbance (test concentration not listed); 330,000 tested, 0.21% active; AID 1053175;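 active = OD600 absorbance below the run mean of sample wells minus 3.6 SD, in any replicate, cut at about 0.56 in these data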;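 note: stock transfer was 300 nL into about 60 µL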
HNF4A DNA FP: change in binding of human HNF4 alpha to DNA; AID 1224865; 360,000 tested, 0.3% active; P41235; HNF4a-FITC DNA binding, fluorescence polarization, 1 h; activity change, % at 10 µM; in the data active = activity change above about 30%, passing the limit was not always enough;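 note: controls were the assay level and a saturating level of protein; the project sought stronger binding though the title names inhibitors; some compounds called inactive have numbers as strong as hits; positive values seem to mean higher polarization but the record does not say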
Target sequence (P41235 whole entry, looked up): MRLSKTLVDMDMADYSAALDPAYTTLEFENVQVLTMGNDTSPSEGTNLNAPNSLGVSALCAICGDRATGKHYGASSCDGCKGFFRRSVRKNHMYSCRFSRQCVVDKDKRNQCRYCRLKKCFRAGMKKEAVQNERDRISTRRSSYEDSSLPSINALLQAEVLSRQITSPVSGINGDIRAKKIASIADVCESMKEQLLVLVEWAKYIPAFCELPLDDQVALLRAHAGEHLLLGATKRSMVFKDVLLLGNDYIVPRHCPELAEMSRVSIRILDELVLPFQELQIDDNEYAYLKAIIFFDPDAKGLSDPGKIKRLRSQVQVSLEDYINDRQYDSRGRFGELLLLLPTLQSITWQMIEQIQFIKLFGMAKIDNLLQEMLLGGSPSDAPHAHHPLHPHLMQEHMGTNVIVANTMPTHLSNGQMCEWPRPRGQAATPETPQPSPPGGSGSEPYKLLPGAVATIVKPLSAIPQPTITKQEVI
ALR inh: inhibitors of human sulfhydryl oxidase ALR; P55789; purified ALR, DTT oxidation, H2O2 HRP-luminol luminescence; inhibition, % (no concentration beside the values); 290,000 tested, 3.8% active;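 active = mean and each replicate at 75% or more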;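 note: stock transfer was 7.5 nL into about 7.5 µL; 0% = neutral wells and 100% = wells with inactivated enzyme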
Target sequence (P55789 whole entry, looked up): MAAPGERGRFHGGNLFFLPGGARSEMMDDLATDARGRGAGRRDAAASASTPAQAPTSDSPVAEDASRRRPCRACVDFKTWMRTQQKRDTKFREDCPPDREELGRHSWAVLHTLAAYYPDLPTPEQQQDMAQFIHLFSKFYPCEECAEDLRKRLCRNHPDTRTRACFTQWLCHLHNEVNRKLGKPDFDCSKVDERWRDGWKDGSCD
Beta2AR agonist: activates human beta-2 adrenergic receptor causing internalization; P07550; 340,000 tested, 0.43% active; Am2.2-beta2AR cells, FAP receptor internalization, flow cytometry; reference of the scale not given here; response, % (test concentration not listed); AID 504454;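 active = response above a set limit, near 3 SD of response in nonfluorescent compounds, cut at about 42% in these data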;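 note: stock transfer was 100 nL into about 11 µL; a reference agonist was the positive control; negative values mostly stem from fluorescent compounds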
FGF22 binding: FGF22 (human) thermal shift binding | calls only at 9.99 µM | 340,000 tested, 1.5% active | Q9HCT0 | recombinant FGF22 thermal shift, SYPRO orange fluorescence; percent of sucrose octasulfate shift, DMSO zero;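 active = melting point raised past a set limit in the mean and every replicate; three in four hits are not shown here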
UCH37 inh: inhibitors of human deubiquitinating enzyme UCH37 | 330,000 tested, 0.33% active | AID 588478 | inhibition, % (no concentration beside the values) | purified proteasome/UCH37, Ub-AMC cleavage fluorescence;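 active = mean of two replicates above 20%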;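 note: 0% = compound-free wells with enzyme and 100% = wells lacking proteasome; stock transfer was 100 nL into about 20 µL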
Target sequence (Q9Y5K5 whole entry, looked up): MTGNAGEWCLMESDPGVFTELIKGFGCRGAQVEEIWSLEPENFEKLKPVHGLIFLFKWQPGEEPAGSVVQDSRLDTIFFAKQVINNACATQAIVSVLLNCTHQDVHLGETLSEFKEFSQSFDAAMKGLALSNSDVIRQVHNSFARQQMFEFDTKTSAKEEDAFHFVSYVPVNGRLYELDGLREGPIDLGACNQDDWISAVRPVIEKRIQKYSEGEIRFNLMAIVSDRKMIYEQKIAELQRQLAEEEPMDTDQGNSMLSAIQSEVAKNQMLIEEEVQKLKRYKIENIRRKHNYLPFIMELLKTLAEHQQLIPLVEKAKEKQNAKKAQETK
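Signal – fluorescence, ex 355 nm, em 460 nm · System – Proteasome-bound UCH37 · Input – 0.15 nM proteasome as dispensed · Timing – 30 min preincubation with enzyme, 25 min cleavage at room temperature · Read-out basis – percent inhibition of cleavage signal versus uninhibited and no-proteasome wells · Medium – Tris-HCl pH 7.4 with ATP-MgCl2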
Numbers without * were called inactive; i = inactive; . = no result given.

Sequence of screens: LANA-H2B inh	E coli growth	HNF4A DNA FP	ALR inh	Beta2AR agonist	FGF22 binding	UCH37 inh
> FC(F)Oc1ccccc1NC(=S)NCCc1ccccc1
→ -3.9	0.617	2.1	1.3	-3.2	i	3.9
> Cc1cc(C)cc(-n2c(C)cc(C(=S)N3CCOCC3)c2C)c1
→ 3.0	0.709	-1.2	-1.1	-16.4	.	0.5
> CN(C)C(CNC(C(=O)Nc1ccc([N+](=O)[O-])cc1Br)c1ccccc1)c1ccccc1 (centres undefined)
→ 0.0	0.701	-5.2	.	-2.5	.	5.3
> Cc1oc(/C=N/NC(=O)CN(c2ccccc2Cl)S(C)(=O)=O)cc1Br
→ 4.7	.	-1.7	.	-3.3	.	.
> Cc1ccc2[nH]c(=O)c(CN(CCCN3CCOCC3)C(=O)NC3CCCCC3)cc2c1
→ 2.5	0.709	-0.1	6.7	-7.3	.	-7.9
> Cc1ccc(C)c(CN2CCC(CNC(=O)Nc3ccc(F)c(Cl)c3)CC2)c1
→ 1.7	0.646	0.2	-2.0	19.2	i	1.8
> CCc1ccccc1NC(=O)Cn1nc(C(F)(F)F)c2c1CCC2
→ 0.4	0.737	1.1	0.3	5.2	.	-1.2
> CN(C)/C=C(\C#N)C(=O)Nc1ccccc1
→ 6.2	0.682	1.6	-6.5	-2.3	i	2.5
> COc1ccc(/C=C/C(=O)NC(=S)Nc2ccccc2)cc1OC
→ -1.8	0.641	4.2	-9.2	7.9	i	4.0
> Cc1cc(COC(=O)C2N3C(=O)[C@@H](NC(=O)COc4ccccc4)[C@H]3SC2(C)C)on1 (some centres undefined)
→ -1.0	.	3.1	.	-7.2	i	-1.3
> Clc1cncc(Cl)c1N/N=C/c1ccncc1
→ .	.	2.7	.	15.5	i	.
> COc1ccc(N2C(=O)c3ccccc3NC2c2ccccc2O)cc1 (centres undefined)
→ 0.4	0.669	2.8	4.8	-2.2	i	-54.5
> Nc1c(Cl)ncnc1N1CCOCC1
→ 2.8	0.695	-1.7	-2.5	-4.2	.	2.9
> CCCOC(=O)C(C)n1cnc2sc(C)c(C)c2c1=O (centres undefined)
→ -6.5	.	0.4	-4.3	-5.7	.	.
> CC1=C[C@@H](C)[C@@H](c2ccc(C(F)(F)F)cc2)OC1=O
→ 3.9	.	-0.8	5.6	0.0	i	2.3
> CCOC(=O)N1CCC(NC(=O)C2CCCN(Cc3nc(-c4ccc(CC)cc4)oc3C)C2)CC1 (centres undefined)
→ -1.4	0.661	2.8	-0.6	11.5	i	3.0
> Clc1cccc(CN2CCC3CC2c2cc(N4CCCCC4)ccc23)c1 (centres undefined)
→ .	.	-1.6	.	-10.4	i	.
> COC(=O)C(N)CCCCN (centres undefined)
→ 1.2	0.714	0.5	.	-1.6	i	2.4
> O=C(CSc1nnnn1-c1ccccc1)NCC1(N2CCCCC2)CCCCC1
→ -5.1	0.668	-3.7	2.4	2.0	i	4.9
> c1cncc(-c2ccc3ncnc(NCc4ccc5c(c4)OCO5)c3c2)c1
→ 3.4	0.652	6.0	-2.7	17.3	i	-0.7
> Cc1cccc(Nc2c(F)c(F)c(F)c(F)c2C(=O)O)c1
→ -2.4	0.706	-0.9	13.5	-2.1	i	0.9
> Nc1ccn(CC(=O)NCc2ccccc2)c(=O)n1
→ -0.3	0.667	-2.0	-17.8	9.0	i	-0.5
> O=C(c1ccccc1)c1cc([N+](=O)[O-])ccc1N1CCCC1
→ -8.9	0.695	-1.7	.	-12.8	.	5.1
> O=C(NC12CC3CC(CC(C3)C1)C2)N1CCC(O)CC1
→ 0.9	0.749	16.2	-8.2	-2.6	.	1.4
> S=c1[nH]nc(-c2ccccc2Cl)n1CC1CCCO1 (centres undefined)
→ 3.6	0.672	-1.3	2.0	2.2	.	3.8
> C=CCC(C(=O)OC)(C(=O)OC)c1ccc([N+](=O)[O-])cc1[N+](=O)[O-]
→ -1.6	0.717	-0.5	-48.6	-0.8	i	0.8
> COc1cc(O)c(C(CC(=O)N2CCN(c3ccccc3)CC2)c2ccc(N(C)C)cc2)c(OC)c1 (centres undefined)
→ 1.8	0.717	-2.8	19.0	2.1	i	3.4
> CC(C)Nc1nc(-c2ccncc2)nc(-c2ccccc2)c1C#N
→ -0.3	0.709	-1.3	4.1	4.0	i	-8.7
> Cc1cccc(NC(=O)c2cc(=O)n(Cc3ccccc3)c(=O)[nH]2)c1
→ 9.4	0.721	0.9	-0.5	-0.1	i	-23.0
> CCCCCn1nc(C(=O)OCc2nc(N)nc(Nc3ccccc3)n2)c2ccccc2c1=O
→ 1.4	0.689	7.9	-0.6	-5.6	i	2.3
> Cc1ccc2c(cnn2C(=O)CCC(=O)NCc2cccc(Cl)c2)c1
→ 1.1	0.713	-2.3	1.3	10.3	i	2.5
> O=C(NCCC(=O)N1CCN(C(=O)c2ccco2)CC1)c1ccccc1Cl
→ -1.5	0.725	0.6	-1.4	-7.5	i	2.8
> Cc1ccc(C(=S)N2CCCCCC2)cc1
→ -1.9	0.617	2.1	-2.9	-0.8	i	1.3
> CCSc1nc2sc3c(c2c(=O)n1CC)CCC3
→ -0.7	0.625	-1.1	-6.5	4.9	i	3.7
> CCOC(=O)C1=C(C)NC(=O)NC1c1ccccc1 (centres undefined)
→ 8.8	0.721	-6.3	-11.2	-5.8	i	3.7
> Cc1ccc(S(=O)(=O)N2CCOCC2)cc1C(=O)NC(C)CCc1ccccc1 (centres undefined)
→ -1.3	0.676	2.2	-7.9	4.5	i	1.2
> C=CCNc1nc(NCc2ccccc2)nc(OCC)n1
→ 0.9	0.673	-0.6	-5.5	-8.7	i	0.1
> COc1ccc(C(=O)NC(=S)Nc2cccc3nc(C)ccc23)cc1OC
→ -3.8	0.665	2.8	-24.6	12.1	i	1.3
> Cc1c(OC(C)C(=O)N2C[C@H]3C[C@@H](C2)c2cccc(=O)n2C3)ccc2c3c(c(=O)oc12)CCC3 (some centres undefined)
→ 0.5	0.715	-15.7	.	1.3	i	-20.8
> CCOc1cc(N2CCOCC2)c(OCC)cc1NC(=O)c1ccco1
→ 0.6	0.609	1.4	44.0	-22.7	i	0.8
> CN(C)C(=O)CCc1ccc2c3c([nH]c2c1)[C@]1(C)[C@@H](C(=O)N2CCCCC2)C[C@H](CC(=O)NCc2ccco2)C(=O)N1CC3
→ .	0.709	0.3	.	-11.8	i	0.8
> O=C1C2(CCC13COC(c1ccc(O)cc1)OC3)COC(c1ccc(O)cc1)OC2 (centres undefined)
→ -4.8	0.734	-1.3	-0.2	9.3	.	1.6
> CC1=C(C(N)=O)C(c2ccccc2)n2nc(-c3cccs3)nc2N1 (centres undefined)
→ -0.9	0.751	-1.0	.	1.5	i	-7.8
> COc1ccc(OCc2nnc(SCC(=O)NC3CC4CCC3C4)o2)cc1 (centres undefined)
→ 0.5	0.645	2.3	5.7	2.3	i	1.6
> CCOC(=O)C1=C(C)N=C2SC(C)C(=O)N2C1c1ccc(C(=O)OC)cc1 (centres undefined)
→ -1.4	0.753	-3.3	-3.4	-1.8	.	2.3
> COc1ccc(Br)cc1S(=O)(=O)NCCN1CCOCC1
→ -5.5	0.717	4.6	-15.0	2.9	i	2.9
> COc1cccc(CN2C(=O)[C@H]3Cc4c([nH]c5ccccc45)C(C)(C)N3C2=O)c1
→ -0.2	.	-2.0	2.4	4.6	i	1.3
> O=C(CSc1nc2ccccc2c(=O)n1CCCN1CCOCC1)NC12CC3CC(CC(C3)C1)C2
→ 0.1	0.694	1.7	.	-11.6	i	3.7
> S=C(NCc1ccco1)N/N=C/c1ccc(Cl)cc1
→ -0.8	.	2.0	.	-6.3	i	.
> COc1ccc(CNS(=O)(=O)CCNC(=O)c2ccc(OC)cc2)cc1
→ 2.0	0.675	1.0	-2.9	-3.3	i	4.1
> O=c1cc(CO)oc(CN2CCN(CCO)CC2)c1O
→ 5.1	0.708	0.5	71.1	5.0	.	2.6
> CCOC(=O)C(C)Oc1cccc2c(=O)n(CC(=O)NCCc3ccccc3)ccc12 (centres undefined)
→ -0.6	0.733	1.2	.	14.8	i	-4.3
> CN(C(=O)CSc1nnc(COc2ccccc2F)n1N)C1CCCCC1
→ 8.7	0.636	0.0	-26.0	1.6	i	-0.2
> O=c1[nH]oc(O)c1-c1ncc(C(F)(F)F)cc1Cl
→ -5.7	0.697	0.7	6.8	3.0	i	1.6
> O=C(NCCN1C(=O)C2C3C=CC(C3)C2C1=O)Nc1ccccc1 (centres undefined)
→ -0.6	0.747	5.2	-10.0	8.9	i	2.2
> N#Cc1ccccc1Cn1c(=O)n(-c2ccc(CC(=O)NCc3ccco3)cc2)c(=O)c2sccc21
→ -2.4	0.758	-1.2	-1.7	-3.6	i	5.3
> CC1(c2ccc3c(c2)OCCO3)NC(=O)N(CC(=O)Nc2ccccc2F)C1=O (centres undefined)
→ .	0.625	-0.2	.	-2.5	i	1.2
> COc1ccc(S(=O)(=O)Nc2cc(OC)c(NC(=O)c3ccco3)cc2OC)cc1
→ -3.1	0.685	0.8	20.8	-3.0	.	3.2
> COCCN(C(=O)COC(=O)CCOc1ccccc1)c1c(N)n(Cc2ccccc2)c(=O)[nH]c1=O
→ -1.6	0.656	-1.2	.	6.1	i	0.4
> CC(C)c1ccc(NC2=CC(=O)CC(C)(C)C2)cc1
→ 7.5	0.688	0.9	.	15.6	i	3.9

Following part:
Sequence of screens: LANA-H2B inh	E coli growth	HNF4A DNA FP	ALR inh	Beta2AR agonist	FGF22 binding	UCH37 inh
> COCC(=O)Nc1nnc(COc2ccccc2)s1
→ 1.1	0.641	0.1	-1.8	4.2	.	-0.4
> Cc1cccc(CC2SC(N)=NC2=O)c1 (centres undefined)
→ 2.2	0.698	-1.9	-19.5	-2.2	.	5.5
> CCn1c(=O)n(CC)c2cc(N3CCCC3)c(NC(=O)c3cccc(Cl)c3)cc21
→ -8.2	0.64	-1.4	71.2	7.6	i	1.1
> O=C(CN1C(=O)NC2(CCCC2)C1=O)OCc1ccc(Cl)cc1Cl
→ -1.9	0.668	-2.7	.	-2.2	i	3.1
> CC(=O)Nc1ccc(NC(=O)CCCCCN2C(=O)c3ccccc3C2=O)cc1
→ -2.1	0.666	-5.1	-2.3	-8.3	.	0.9
> CCCCCNC(=O)Cc1ccc(S(=O)(=O)N2CCOCC2)s1
→ -0.8	0.676	2.1	-5.8	8.5	i	-1.4
> O=C(CCS(=O)(=O)c1ccc(Br)s1)NCc1cccs1
→ 4.9	0.724	2.7	-1.6	-11.4	.	4.1
> CCOc1ccc(NC(=O)N[C@@H](Cc2ccccc2)C(=O)O)cc1
→ 1.9	0.762	2.0	.	2.5	i	5.1
> CCS(=O)(=O)N1CCC(C(=O)N2CCc3ccccc3C2)CC1
→ -2.4	0.649	2.8	-3.8	-5.8	.	4.1
> Cc1cccc(C)c1NC(=O)C1CCCN(CCCc2ccccc2)C1 (centres undefined)
→ .	0.806	1.4	.	-1.3	.	10.0
> CC(C)CNC(=O)CN(C1CCCCC1)S(=O)(=O)c1ccccc1
→ 1.6	0.722	3.5	-3.1	6.6	.	1.0
> CC(C)c1ccccc1NC(=S)NC1CCN(Cc2ccccc2)CC1
→ .	0.696	0.8	.	-6.3	.	3.7
> COc1ccccc1CN(C(=O)c1cnccn1)C(C(=O)NC1CCCCC1)c1cc(OC)c(OC)c(OC)c1 (centres undefined)
→ 1.5	.	-2.8	.	-3.9	.	.
> O=C(NC(=S)Nc1ccc(-c2ccccc2)cc1)c1ccccc1
→ .	0.715	-1.5	.	7.0	i	7.0
> CCCCOc1ccc(C(=O)NCc2ccccn2)cc1
→ -4.2	0.709	-2.5	-22.6	-1.7	.	1.2
> Cc1nc(SCC(=O)N2CCCCCC2)c2c(=O)n(C)c(=O)n(CC(C)C)c2n1
→ .	.	-0.9	.	2.1	i	.
> COc1ccccc1CNS(=O)(=O)c1c(C)[nH]c(C)c1C(=O)N1CCCC1
→ 2.5	0.609	-2.9	26.0	3.4	i	-0.7

Assay outcomes deposited in PubChem by several laboratories.

An excerpt. The share of hits here may be higher or lower than overall.
